High-throughput results (PubChem)
GIV-Gai inh – blocks GIV peptide binding to rat Galpha-i3 | Galpha-i3/FITC-GIV peptide fluorescence polarization, 90 min; active compounds read low; scaled: aluminum fluoride 0%, vehicle 100% | actives 0.42% (n = 210,000) | percent of control (FP), % (test concentration not listed);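 active = replicate mean at 85% of control or lower, very high polarization wells dropped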;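 also: lower values mean more displacement of the GIV peptide from Galpha-i3; wells of about 15 µL received 100 nL stock; the first replicate is given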
Target sequence (P08753 whole entry, looked up): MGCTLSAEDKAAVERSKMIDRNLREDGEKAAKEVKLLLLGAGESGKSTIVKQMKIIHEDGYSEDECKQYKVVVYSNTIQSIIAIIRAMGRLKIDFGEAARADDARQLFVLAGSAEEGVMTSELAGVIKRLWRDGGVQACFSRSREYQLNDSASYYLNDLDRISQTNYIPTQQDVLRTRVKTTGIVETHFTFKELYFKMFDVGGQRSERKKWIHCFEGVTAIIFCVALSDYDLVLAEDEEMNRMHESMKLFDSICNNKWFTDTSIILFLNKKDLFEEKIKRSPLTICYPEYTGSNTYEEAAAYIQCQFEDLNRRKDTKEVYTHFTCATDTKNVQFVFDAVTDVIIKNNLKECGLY
HCMV NEC inh – cytomegalovirus nuclear egress complex inhibition; inhibition, % (test concentration not listed); AID 1918969; HTRF UL50-UL53 interaction, normalized percent inhibition; actives 0.15% (n = 190,000);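 active = both replicates at 50% or more, plus weaker picks with an unusually low signal ratio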;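 also: stock transfer was 100 nL into about 20 µL; 0% = negative control wells and 100% = wells with untagged competitor protein; inactives centre near -12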
Sa growth 42C – blocks Staphylococcus aureus growth | relative growth, % (concentration not given with the values) | actives 0.53% (n = 170,000) | S. aureus RN4220 growth, OD600, 20 h, 42 °C; active compounds read low;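 active = growth at 42 °C up to 50% and 20 or more points under that at 30 °C, or under 10% at both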;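 also: 300 nL library stock went into each well; scaled to the means of positive and negative controls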
Sa growth 42C second temp – further read-out of Sa growth 42C, marked with its call; relative growth, %; measured here: growth at 30 °C;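 optical density after 20 h as mean of two plates; 100% = untreated growth and lower means inhibition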
Numbers without * were called inactive; nt = no result given; & = joins results of further samples.

structure	GIV-Gai inh	HCMV NEC inh	Sa growth 42C	Sa growth 42C second temp
O=C(NC1CCN(Cc2ccccc2)CC1)c1cccc(N2CCCS2(=O)=O)c1	106.8	-28.8	104.8	80.1
CC(C)Cc1ccc(S(=O)(=O)Nc2noc3ccccc23)cc1	103.7	8.7	64.5	58.2
COc1cc2ccccc2cc1C(=O)N1CCN(c2nc3c(F)cc(F)cc3s2)CC1	97.3	nt	116.9	101.6
O=C(Cc1n[nH]c(=O)c2ccccc12)Nc1cccnc1	nt	-24.3	110.4	83.1
Cc1cc(-c2cc(S(=O)(=O)NCc3cccs3)c(C)s2)on1	107.7	-1.9	nt	nt
CCCOc1ccc(C(F)(F)F)cc1NC(=O)c1cccnc1SCc1c(C)noc1C	nt	-25.4	101.1	103.0
Oc1cccc2ccc(N3CCOCC3)nc12	101.0	-18.8	111.0	82.6
CC(C)C(O)(CC#CCN1CCCC1)c1ccccc1 (stereo not given)	101.2	-5.5	94.7	95.3
C=CCN(c1nc(C)c(Cl)c(OC)n1)S(=O)(=O)c1ccc(C)cc1	99.2	-10.8	nt	nt
COc1cccc(C2CC(c3ccc(Br)cc3)=NN2S(=O)(=O)c2ccccc2)c1OC (stereo not given)	109.0	-2.9	nt	nt
O=C(Nc1cccnc1)C(=O)c1c(O)[nH]c2ccccc12	nt	-15.0	86.1	90.3
Cc1oc(-c2ccccc2)cc1-c1ccn[nH]1	107.3	0.6	145.0	60.2
CCCCn1c(CN2CCN(c3ccc(OC)cc3)CC2)nc2c1c(=O)[nH]c(=O)n2C	99.5	-2.7	102.3	85.2
CC(C)CC(C(=O)O)N1C(=O)c2cc(Cl)c(Cl)cc2C1=O (stereo not given)	101.6	0.7	101.1	93.5
Cc1noc(C)c1CC(=O)N1CC(C(N)=O)Oc2ccccc21 (stereo not given)	nt	-31.2	81.4	95.9
CC(C)Nc1nc(Oc2ccc(=O)n(-c3ccccc3)n2)nc(N(C)C)n1	97.3	-2.7	91.1	88.1
CC1(C)CS(=O)(=O)N(c2ccc(C(=O)N3CCc4ccccc43)cc2)C1=O	104.3	-20.3	nt	nt
Clc1ccc(-c2noc(-c3csnn3)n2)cc1	97.5	-1.4	107.2	72.2
O=C(CCC(=O)N1CCSc2ncccc21)NCc1ccc2c(c1)OCO2	101.8	-5.9	nt	nt
NC(N)=NC(N)=Nc1cc(-c2cccs2)[nH]n1	103.6	-34.6	100.6	53.6
O=C(CSc1nc(-c2ccccc2)cc(=O)[nH]1)c1c[nH]c2ccccc12	101.7	nt	111.0	87.2
Cc1ccc(NC(=O)Nc2ccc3c(c2)oc(=O)n3C)cc1	101.7	-16.7	103.8	91.0
Cc1nn(CCCC(=O)NCCCN2CCOCC2)c(=O)c2c(-n3cccc3)n(-c3ccccc3)nc12	102.6	-15.3	nt	nt
CCOc1ccc(C(Nc2nc(C)cc(C)n2)c2c(NC(=O)c3ccccc3)sc(C)c2C)cc1 (stereo not given)	108.1	-30.9	nt	nt

Part of the list above, limited to Sa growth 42C second temp, Sa growth 42C and GIV-Gai inh:
SMILES,Sa growth 42C second temp,Sa growth 42C,GIV-Gai inh
Clc1ccc(-c2noc(-c3csnn3)n2)cc1,72.2,107.2,97.5
CC1(C)CS(=O)(=O)N(c2ccc(C(=O)N3CCc4ccccc43)cc2)C1=O,nt,nt,104.3

Next part
structure	GIV-Gai inh	HCMV NEC inh	Sa growth 42C	Sa growth 42C second temp
CC1=NN(C(=O)CCc2ccccc2)C(O)(c2ccc(Br)cc2)C1 (stereo not given)	114.2	7.6	nt	nt
O=C1COc2cc(S(=O)(=O)N3CCN(C4CCCCC4)CC3)c(Cl)cc2N1	108.8	-19.6	nt	nt
O=C(CSc1nnc(-c2cccnc2)o1)NCCC1=CCCCC1	100.0	-33.4	nt	nt
CCn1c(=O)c2c(C(=O)NCCC3=CCCCC3)cc(=O)n(CC)c2n(C)c1=O	106.8	-35.3	nt	nt
C=CCn1c(-c2cccnc2)nn(C(=O)c2cc(OC)c(OC)c(OC)c2)c1=S	96.1	nt	98.9	83.2
O=C(COc1ccccc1)N(c1nccs1)C1CCCCC1	nt	5.5	118.8	102.2
Cc1cccn2c(=O)cc(CSc3nnc(NC(=O)COc4ccccc4)s3)nc12	106.2	nt	85.8	82.9
O=C(Nc1ccc(C(F)(F)F)cc1)c1cc(S(=O)(=O)NC2CCCCCC2)ccc1F	101.5	nt	95.0	63.3
O=C(OCc1nnc(-c2ccccc2)o1)c1ccccc1NS(=O)(=O)c1ccc2c(c1)OCCO2	nt	-8.0	103.7	88.7
CC(=O)NCc1ccc(C(=O)COC(=O)c2ccc(S(=O)(=O)N3CCCCCC3)cc2)o1	nt	-35.2	108.0	82.4
Cc1cc(C)cc(-n2ccnc(NC(=O)Nc3ccc(F)cc3)c2=O)c1	106.9	-7.7	nt	nt
CCc1ccc(Nc2nc(C)c3ncn(-c4ccc(CC)cc4)c3n2)cc1	100.5	-24.1	nt	nt
CCc1ccc(NCc2cccn2-c2nnc(N3CCCCCC3)s2)cc1	102.0	-7.1	110.1	91.3
CCCC(=O)N1CCCC(c2nc(-c3ccc(C(C)C)cc3)no2)C1 (stereo not given)	105.1	7.1	59.5	54.6
CC(NC(=O)COc1cccc(-n2cnnn2)c1)c1ccc2c(c1)OCO2 (stereo not given)	nt	-22.8	80.7	94.8
COc1ccc(-c2noc(COc3ccc(Br)cc3C)n2)cc1OC	97.3	13.4	96.6	94.8
COc1ccc(Br)cc1S(=O)(=O)N1CCN(Cc2ccc3c(c2)OCO3)CC1	98.0	nt	121.4	79.7
COc1ccc(C(=O)NCCc2ccccn2)cc1S(=O)(=O)NC1CCCC1	nt	-23.2	97.2	97.9
O=C1c2cccnc2C(=O)N1CCc1ccc(S(=O)(=O)NCc2ccccn2)cc1	99.4	-53.5	104.1	90.3
Cc1ccc(C(=O)OCC(=O)Nc2ccc(N(C)C)cc2)c(C)c1	nt	-2.0	108.2	96.1
CCOC(=O)c1c(C)[nH]c(C)c1S(=O)(=O)N1CCC(C(=O)Nc2ccc(NC(C)=O)cc2)CC1	105.9	-5.9	nt	nt
COCC(=O)Nc1cccc2ccccc12	102.7	-13.4	105.5	96.7
Cc1nn(-c2ccccc2)c(C)c1C(=O)N(Cc1ccco1)Cc1cccs1	nt	-19.7	100.6	95.8
Cc1ccccc1-n1c(SC(C)C(=O)NC(N)=O)nnc1-c1ccc(Cl)cc1 (stereo not given)	nt	-27.3	71.1	76.7
CC(Oc1ccc(C(C)(C)C)cc1)C(=O)NCCc1csc(-c2ccccc2)n1 (stereo not given)	102.5	-19.2	nt	nt
COC(=O)CNC(=O)c1cc(-c2ccc(F)cc2)nc2ccccc12	100.3	nt	87.2	73.5
COc1ccccc1CNC(=O)C1CCCN1S(=O)(=O)c1ccc2c(c1)C(C)(C)C(=O)N2C (stereo not given)	101.1&100.3	-15.2&13.5	95.0	90.5
COc1cccc(CSc2nc3n(n2)C(c2cccnc2)C(C(=O)Nc2ccccc2C)=C(C)N3)c1 (stereo not given)	100.5	nt	123.9	74.1
Cc1ccc(-n2c(N)c(C(=O)NCC3CCCO3)c3nc4ccccc4nc32)cc1 (stereo not given)	nt	-15.1	98.9	100.0
O=S(=O)(c1ccc(NC(=S)Nc2ccc3c(c2)OCO3)cc1)N1CCCCC1	99.1	-18.6	88.8	90.0
COc1ccccc1N1CCN(C(=O)CCc2ccccc2)CC1	104.8	-3.6	102.8	87.0
Cc1nn2c3c(nnc2c1-c1ccccc1)C(=O)CCC3	98.4	-165.4	nt	nt
CCC(C(=O)N1CCN(c2ccccc2)CC1)n1sc2ccccc2c1=O (stereo not given)	94.5	-13.3	119.9	91.1
Cc1ccc(Cn2ccn(Cc3ccccc3)c(=O)c2=O)cc1	97.0	nt	83.7	86.1
Cc1cc(C(=O)COC(=O)CN=C2NS(=O)(=O)c3ccccc32)c(C)n1C	nt	-15.5	76.7	90.7
COc1ccc(-n2c(SCc3ccccc3)nc3c([nH]c4ccccc43)c2=O)cc1	106.7	nt	121.0	96.9
COC(=O)c1cccc(NS(C)(=O)=O)c1	96.1	-11.7	119.8	82.1
C=CCn1c(Cc2csc(N)n2)nnc1SCC(=O)Nc1ccc(S(N)(=O)=O)cc1	102.0	-1.5	105.1	103.9
COc1ccc(-c2cc(=O)oc3c4c(ccc23)OCN(Cc2ccco2)C4)cc1	110.7	-109.9	105.7	88.5
O=C(Nc1ccc(OCC(=O)N2CCCC2)cc1)c1ccco1	nt	-2.9	107.7	87.3

By substructure: those above with a furan ring, fused or not
structure	GIV-Gai inh	HCMV NEC inh	Sa growth 42C	Sa growth 42C second temp
Cc1oc(-c2ccccc2)cc1-c1ccn[nH]1	107.3	0.6	145.0	60.2
CC(=O)NCc1ccc(C(=O)COC(=O)c2ccc(S(=O)(=O)N3CCCCCC3)cc2)o1	nt	-35.2	108.0	82.4
Cc1nn(-c2ccccc2)c(C)c1C(=O)N(Cc1ccco1)Cc1cccs1	nt	-19.7	100.6	95.8
COc1ccc(-c2cc(=O)oc3c4c(ccc23)OCN(Cc2ccco2)C4)cc1	110.7	-109.9	105.7	88.5
O=C(Nc1ccc(OCC(=O)N2CCCC2)cc1)c1ccco1	nt	-2.9	107.7	87.3

Later entries.
structure	GIV-Gai inh	HCMV NEC inh	Sa growth 42C	Sa growth 42C second temp
Cc1ccc(C)c(Nc2nn3c(=O)c4ccc(C(=O)NCCC5=CCCCC5)cc4nc3s2)c1	106.2	nt	122.6	91.1
O=c1c(S(=O)(=O)c2cc(F)cc(F)c2)c[nH]c2cc(F)c(Cl)cc12	101.6	-23.4	nt	nt
CCOC(=O)C1=C(C)N=c2s/c(=C\c3ccc(OCC)cc3)c(=O)n2C1c1cc(OC)ccc1OC (stereo not given)	100.2	-24.3	nt	nt
CCOC(=O)c1c(NC(=O)c2ccco2)sc(C(=O)Nc2cc(C(F)(F)F)ccc2Cl)c1C	90.9	-15.6	nt	nt
CC1(C)CC(=O)C2=C(C1)Nc1ccccc1NC2c1c(F)cccc1Cl (stereo not given)	105.9	3.8	nt	nt
O=C(Cn1nnc(-c2ccccc2)n1)N1CCCc2ccccc21	nt	2.5	100.1	94.1
Cc1ccc2oc(-c3ccc(NC(=O)c4cc(Br)ccc4Cl)cc3O)nc2c1	101.7	-30.5	nt	nt
Cc1ccccc1NC(=O)c1cc2ccccc2o1	100.0	nt	98.2	88.7
O=C(NCCN1CCN(Cc2ccccc2)CC1)Nc1ccccc1	101.3	-26.3	101.8	89.0
COc1ccc(C(=O)N2CCc3cc(OC)c(OC)cc3C2c2ccccc2)cc1 (stereo not given)	105.6	nt	116.3	99.1
CCn1c2ccccc2c2cc(NC(=O)c3cccs3)ccc21	nt	-26.6	101.6	79.6
COCCCNc1nc2c(c(=O)n(Cc3ccccc3)c(=O)n2C)n1C	107.3	-1.6	99.5	93.0
CC(=O)N(/N=c1\sc2ccccc2n1C(C)=O)C(C)=O	nt	7.2	100.9	104.7
CC(C)=N/N=C1/NC(=O)C(CC(=O)Nc2ccc(C(=O)O)cc2)S1 (stereo not given)	98.2	-10.3	93.5	100.0
Cc1ccc2nc(/C(C#N)=C/c3ccc(-c4ccc(F)cc4F)o3)[nH]c2c1	237.0	-39.2	100.7	94.5
COc1cccc(-n2c(=O)c3c(C)c(C)sc3n(CC(=O)NCCC3=CCCCC3)c2=O)c1	111.9	nt	93.7	93.7
COc1ccc(CNc2ncnc3scc(-c4ccccc4)c23)cc1	106.2	-22.0	nt	nt
Cn1ccnc1C(=O)c1ccc(F)cc1	nt	-4.9	104.0	90.4
Cc1cc(C)c2c(-n3cccc3)c(C(=O)NCc3cccc(F)c3)sc2n1	97.7	-2.8	92.8	90.8
O=C(Cn1cnc2c(oc3ccccc32)c1=O)NCc1ccccc1	98.5	nt	105.5	82.8
COc1cccc(OC)c1C(=O)N1CCN(C(=O)c2ccccc2)CC1	102.5	-18.5	96.0	90.3
Cc1ccc(-c2nnc(SCC(=O)OC(C)C)o2)cc1	97.1	-14.0	96.0	88.0
COc1cc(OC)cc(-c2nc(N)c3c(C)c(-c4ccc(OC)c(OC)c4)sc3n2)c1	102.2	-4.9	100.0	88.8
